High-throughput results (PubChem BioAssay)
ClpP mod: qHTS Assay for Activators of ClpP; Potency, µM (doses to about 57.5 µM), inactives show top-dose activity change, negative = active; purified B. subtilis ClpP, FRET peptide cleavage, 20 min; AID 651965, 2013; ATP-dependent Clp protease proteolytic subunit (Bacillus subtilis (strain 168)), P80244; hit rate 1.9% among 340,000; active = well fitted falling curve with a large enough effect; inconclusive = small, poorly fitted or top-dose-only effect; inactive = no such curve, though single readings can be large or run the other way; further: the source files actives as falling curves though it sought activators and does not explain the sign; nearly all actives have a fitted effect of over 65% in size; many hits overshoot -100%
Target sequence (P80244 whole entry, looked up): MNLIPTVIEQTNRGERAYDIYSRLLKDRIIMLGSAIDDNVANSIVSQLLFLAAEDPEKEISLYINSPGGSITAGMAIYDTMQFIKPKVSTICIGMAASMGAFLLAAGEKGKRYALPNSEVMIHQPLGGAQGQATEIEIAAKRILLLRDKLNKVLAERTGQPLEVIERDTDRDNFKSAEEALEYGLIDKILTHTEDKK
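Buffer: 100 mM Tris/HCl pH8, 100 mM KCl, 0.05% low protease BSA, 2.5% glycerol, 0.01% Tween-20. ClpP 10 microg/mL final; 20 min RT; delta FRET normalized to ADEP and DMSO controls.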
Starred values were filed as active, the others as inactive; ? = inconclusive. Potency means the concentration at half of the fitted maximal effect. An excerpt, so the mix of outcomes need not match the whole.

canonical_smiles	ClpP mod
CCc1nc2c(OCc3ccc(Cl)cc3)cccn2c1N(C)C(=O)c1ccc(C)cc1	-4.2%
CC(C)C[C@@H](CN1CCC[C@H]1CN1C(=O)C(=O)NC[C@@H]1Cc1ccccc1)N1C[C@H](Cc2ccc(O)cc2)N(CC2CCCCCC2)C(=O)C1=O	-2.9%
Cc1ccc(S(=O)(=O)NC(=O)C2(C)CCN2C(=O)c2c(C)noc2C)cc1 (stereo not drawn)	-0.7%
Cc1cc(N2CCN(C(=O)Oc3ccc([N+](=O)[O-])cc3)CC2)c2ccccc2n1	-0.9%
CCCc1c(-c2cccc(Cl)c2)ncn1Cc1ccccc1OC	-0.8%
COc1cccc(NC(=O)N2CCc3nc(Nc4cc(Cl)cc(Cl)c4)ncc3C2)c1	-9.4%
O=[N+]([O-])c1ccccc1S(=O)(=O)N1CCN(c2nc(-c3cccs3)nc3ccccc23)CC1	-5.3%
COc1ccc(Nc2nc(NCc3cccs3)nc3ccsc23)cc1OC	-3.3%
O=S(=O)(c1ccc(C(F)(F)F)cc1)N1CCN(c2nc(-c3cccs3)nc3ccccc23)CC1	?
COC(=O)[C@H](Cc1ccccc1)N(Cc1ccc(C)cc1)S(C)(=O)=O	-0.3%
COC(=O)c1cccc(CN2C(=O)C(C)Sc3ccc(C)cc32)c1 (stereo not drawn)	-0.2%
CC(=O)NC(c1ccccc1)c1nc(-c2cc(F)cc(F)c2)cs1 (stereo not drawn)	1.6%
COc1ccc(Nc2c(-c3cc4ccccc4o3)nc3nc(C)cc(C)n23)cc1	-1.3%
COc1cccc(-c2cnc(C(O)c3ccc(Cl)c(F)c3)[nH]2)c1 (stereo not drawn)	2.3%
CCCCNC(=O)c1nc(-c2cnc(C)cn2)oc1-c1ccc(Cl)cc1	3.8%
Cc1cccc(C)c1NC(=O)C(c1ccc(C#N)cc1)n1c(=O)c(-c2cc3ccccc3[nH]2)nc2ccccc21 (stereo not drawn)	9.7%
COCC(=O)N[C@H]1C=C[C@@H](CC(=O)NCc2ccccc2OC)O[C@@H]1CO	-2.8%
CCCc1cnc(Nc2nc(C(N)Cc3ccc(OC)cc3)cs2)nc1 (stereo not drawn)	-0.6%
Cn1c(=S)[nH]c2cc(C(=O)N3CCN(Cc4cccs4)CC3)ccc2c1=O	1.4%
O=S1(=O)C[C@H](N2CCOCC2)[C@@H](COCc2ccccc2)N1	1.6%

Of the compounds above, five have a Cl atom.
canonical_smiles	ClpP mod
CCc1nc2c(OCc3ccc(Cl)cc3)cccn2c1N(C)C(=O)c1ccc(C)cc1	-4.2%
CCCc1c(-c2cccc(Cl)c2)ncn1Cc1ccccc1OC	-0.8%
COc1cccc(NC(=O)N2CCc3nc(Nc4cc(Cl)cc(Cl)c4)ncc3C2)c1	-9.4%
COc1cccc(-c2cnc(C(O)c3ccc(Cl)c(F)c3)[nH]2)c1 (stereo not drawn)	2.3%
CCCCNC(=O)c1nc(-c2cnc(C)cn2)oc1-c1ccc(Cl)cc1	3.8%

Next part:
canonical_smiles	ClpP mod
COc1cccc(C(C)(O)c2nc(-c3csc4ccccc34)cs2)c1 (stereo not drawn)	0.4%
Cc1cc(N2CCN(C(C(=O)NC3CCCC3)C(C)C)CC2)c2ccccc2n1 (stereo not drawn)	-8.1%
c1cc2c3c(c1)CCCN3CCC2	0.0%
CCCNC(=O)C1(C)CCCN(Cc2cc(-c3ccccc3)nn2C)C1 (stereo not drawn)	2.5%
CCC(=O)N1CCC1(C)C(=O)Nc1cccc(OC)c1 (stereo not drawn)	0.3%
CN(C)c1ccc(/C=C/c2ccc3cc(N(C)C)ccc3n2)cc1	-3.2%
COc1ccc2sc3cccc(NCCN(C)C)c3c(=O)c2c1	-0.8%
CC(C)OC(=O)CC(=O)CC(O)c1cccc([N+](=O)[O-])c1 (stereo not drawn)	1.5%
Cn1nnc2c(NCc3ccco3)ncnc21	1.4%
O=C(OC(C(=O)N1CCOCC1)c1ccccc1)c1c2c(nc3ccccc13)CCCC2 (stereo not drawn)	-15.6%
NC(Cc1ccccc1)c1csc(Nc2nccc(C(F)(F)F)n2)n1 (stereo not drawn)	-3.5%
CC1(C(=O)Nc2ccc3[nH]ncc3c2)CCN1C(=O)C/C=C/c1ccccc1 (stereo not drawn)	-1.6%
CS(=O)(=O)N1CCCCC1c1cc(C(=O)Nc2cccc3c2CCCC3)no1 (stereo not drawn)	-1.4%
OC(c1ccc(Cl)cc1)c1ncc(-c2ccccc2Cl)[nH]1 (stereo not drawn)	-4.8%
O=C(Nc1ccc2c(c1)OCCO2)C(c1ccccc1F)n1c(=O)c(-c2cc3ccccc3[nH]2)nc2ccccc21 (stereo not drawn)	5.8%
CC(C)N(C)c1ncnc2c1ncn2[C@H]1CN(CCN2CCOCC2)C[C@@H](CO)O1	0.8%
COC(=O)[C@@]12C[C@@H](CC(=O)NCCC(C)C)C(=O)N(Cc3cccc4ccccc34)C1=CCC(C)(C)C2	1.5%
Clc1ccc(Cn2c3c(c4ccccc42)CCc2cc4ccccc4nc2-3)cc1	4.2%
CCOC(=O)[C@]12CCCC=C1N(Cc1ccco1)C(=O)[C@H](CC(=O)NCc1cccc3ccccc13)C2	0.6%
Cc1ccc(-c2nnc3ccc(SCC(=O)c4ccccc4)nn23)cc1	-24.5%
COc1cccc(C(O)c2nc(-c3cccc(C(=O)O)c3)cs2)c1 (stereo not drawn)	-1.5%
COc1cccc(C(O)c2nc(-c3cc4ccccc4o3)cs2)c1 (stereo not drawn)	-3.6%
NS(=O)(=O)c1ccc(N=Nc2cc3ccccc3c(C(=O)O)c2O)cc1	-8.7%
CN(C)CCNC(=O)c1[nH]c(C(F)(F)F)nc1-c1ccccc1	0.2%
O=[N+]([O-])c1ccc(S(=O)(=O)N2CCN(c3nc(-c4ccccc4)nc4ccccc34)CC2)cc1	-2.0%
COc1cccc(OC)c1-c1cc(CCCc2cc(-c3c(OC)cccc3OC)nc3ccccc23)c2ccccc2n1	-11.7%
CNc1cncc(-c2ccc(OCCCN(C)C)nc2)n1	5.0%
CC1(C)OC(=O)C2=C(C[C@@H](C3CCCCC3)O[C@@H]2c2ccc(F)cc2)O1	2.3%
CC(C)NC(=O)C1(C)CN(S(C)(=O)=O)CC(=O)N1CC(F)(F)F (stereo not drawn)	1.0%
COc1ccc(CNC(=O)c2sc(=O)n(Cc3ccc(-c4ccccc4)cc3)c2C)cc1OC	-5.7%
C/C=C1\NC(=O)[C@H](C)NC(=O)[C@@H](NC(=O)[C@H](Cc2ccc(O)cc2)NC(=O)[C@@H](NC(=O)/C(C)=C/C)C(C)C)[C@@H](C)OC(=O)[C@H](CC(C)C)NC(=O)[C@@H](CCC(=O)O)NC1=O	-2.2%
O=c1n(Cc2ccccc2)c(O)c2n1Cc1ccccc1N=C2c1ccc(C(F)(F)F)cc1	1.4%
CC[N+](CC)(CC)c1ccc(/C=C/c2ccc3ccccc3n2)cc1	-1.7%
CC(=O)c1cc2ccccc2c2ccccc12	-1.0%
CCCCNC(=O)c1nc(-c2cccs2)oc1-c1ccc(Cl)cc1	4.1%
CC(C)Sc1nnc2c3ccccc3n(C)c2n1	-0.7%
CC1(C(=O)NS(=O)(=O)c2ccccc2C(F)(F)F)CCN1C(=O)CC1CCCC1 (stereo not drawn)	-2.1%
COc1cccc(OC2(C)CCN(Cc3ccc(-c4ccccn4)cc3)C2)c1 (stereo not drawn)	-0.8%
CCc1nc2ccc(C(=O)N3CCN(C(=O)c4ccco4)CC3)cn2c1N(C)C(=O)Nc1ccccc1OC	0.1%
Cc1cc(C)cc(C(O)c2ncc(-c3ccc(Cl)cc3)[nH]2)c1 (stereo not drawn)	1.1%

Look-ups from the entries so far.
Reading of CC(=O)c1cc2ccccc2c2ccccc12 in ClpP mod: -1.0%
Reading of CC[N+](CC)(CC)c1ccc(/C=C/c2ccc3ccccc3n2)cc1 in ClpP mod: -1.7%

(more compounds)
canonical_smiles	ClpP mod
COc1ccc(C2Nc3ccccc3C(=O)N2Cc2ccco2)cc1OC (stereo not drawn)	4.7%
CCCC(=O)N1CCCC1(C)C(=O)Nc1ccc2c(c1)CCN2C(C)=O (stereo not drawn)	-0.9%
O=C1NC[C@@H](CCCCN2C[C@H](Cc3ccccc3)N(CC3CCCCC3)C(=O)C2=O)N(CC2CCCCC2)C1=O	-0.1%
CCOC(=O)[C@]12CCC=C1N(Cc1ccc(Cl)cc1Cl)C(=O)[C@H](CC(=O)NCc1cccc3ccccc13)C2	-7.3%
O=C(NC1CCCCC1)C(c1ccccc1)n1c(=O)c(-c2cc3ccccc3[nH]2)nc2ccccc21 (stereo not drawn)	?
CCCCNc1ccc(/C=C2\C=Cc3ccccc32)cc1	-1.5%
CCc1nc2ccc(C(=O)N3CCCCC3)cn2c1N(C)CCCc1ccccc1	0.4%
COc1ccc(OC)c(NC(=O)C2(C)CCN2Cc2cccc(OC)c2F)c1 (stereo not drawn)	-0.7%
O=C(O)CC(CC(=O)O)c1ccc2c(c1)OCO2	-2.2%
Cc1ccc2cc(F)c(F)c(F)c2n1	0.3%
CCCC[C@@H]1Cc2[nH][nH]c(=O)c2[C@H](c2cccc3ccccc23)O1	0.5%
COc1ccc(CCn2c(=S)[nH]c(=O)c3c(C)cc(C)nc32)cc1OC	-2.4%
COc1ccc(C(O)c2ncc(-c3ccc4ccccc4c3)[nH]2)cc1 (stereo not drawn)	4.0%
CC1(C)OC(=O)C2=C(C[C@@H](C3CC3)O[C@H]2CCc2cccc(Cl)c2)O1	2.2%
COc1ccc(Cl)cc1-c1cc(C(=O)N[C@H](C)c2ccccc2)[nH]n1	-7.9%
C/C=C(\NNC(C)=O)c1ccc(O)cc1	1.8%
CC(C)NC(=O)C1(C)CCN1C(=O)c1ccccc1F (stereo not drawn)	-0.9%
CCN(CCO)CC1CCCC2CCCCC21 (stereo not drawn)	-2.7%
CCCCn1nnnc1C(c1cc2ccccc2o1)N1CCN(c2ccccc2F)CC1 (stereo not drawn)	-4.0%
Cc1ccc(C)c(C(O)c2ncc(-c3ccccc3Cl)[nH]2)c1 (stereo not drawn)	0.4%
c1ccc(-c2nc3c4ccccc4ccn3c2CC2CCCCC2)cc1	-20.7%
NC(=O)c1cccc(-c2csc(C(O)c3ccccc3)n2)c1 (stereo not drawn)	-2.3%
CCN(CC)c1ccc(/C=C/c2cc(Cl)nc3ccccc23)cc1	-1.1%
CC(C)C1OC(CCc2ccccc2)Cc2[nH][nH]c(=O)c21 (stereo not drawn)	1.4%
CCOC(=O)C1=CCN(S(=O)(=O)c2ccccc2F)C1c1cccc(C)c1 (stereo not drawn)	-1.1%
COCCNc1nc(Oc2ccc(C(N)=O)cc2)c2sccc2n1	-24.5%
COC(=O)[C@@]1(Sc2ccc(C)cc2)CC(=O)N[C@@H]1c1ccccc1	0.0%
CC(C)NC(=O)c1cc(C2CCCCN2S(=O)(=O)c2cccc3cccnc23)on1 (stereo not drawn)	-1.8%
CSC1=NC=C(C#N)C2=NC(c3c(Cl)cccc3Cl)NN12 (stereo not drawn)	-2.4%
C[C@H](c1ccccc1)N1C[C@H](COCc2ccccc2)Oc2cc(N3CCC[C@@H]3CO)ccc2S1(=O)=O	?
C#CCNC(=O)c1csc([C@@H]2O[C@H](CO)[C@@H](O)[C@H]2O)n1	-9.8%
O=C(NNc1ccccc1F)c1cccs1	0.1%
Cc1cc2nc(-c3ccco3)c(CC(C)(C)C)n2c(C)c1Br	-4.0%
CC(=O)c1ccc[n+](CC(=O)c2ccc(F)cc2)c1	1.3%
O=C(Nc1nnc(CCc2ccccc2)s1)C1CCN(C(=O)c2ccco2)CC1	0.7%
Fc1cccc(Cc2c(-c3cccc(Br)c3)nc3c(Cl)cc(C(F)(F)F)cn23)c1	-2.2%
CCCS(=O)(=O)NC(=O)C1(C)CCN(C(=O)c2ccc3ccccc3c2)C1 (stereo not drawn)	-0.8%
CNc1ccc(-c2cccc(CO)c2)cn1	4.3%
O=C(c1cc2c(c(-c3cccc(-c4ccc(F)cc4)c3)n1)[C@H](CCO)N(C(=O)c1ccc3c(c1)OCO3)C2)N1CCOCC1	0.4%
CNc1ccc(-c2cccc(C#N)c2)cn1	-26.4%
CC1(C(=O)Nc2cccc(Oc3ccccc3)c2)CCN1Cc1ccccc1Cl (stereo not drawn)	-5.9%
COc1cccc(-c2cccc3c2NC(=O)C3(C)Cc2cccc(F)c2)c1 (stereo not drawn)	-5.6%
O=C(Nc1ccc(F)c(Cl)c1)c1cc(C2CCCN(C(=O)CCc3ccccc3)C2)on1 (stereo not drawn)	-1.8%
O=C(NCCc1ccccc1)c1[nH]c(C(F)(F)F)nc1-c1ccccc1	-3.8%
Cc1noc(C)c1C(=O)N1CCC1(C)C(=O)NS(=O)(=O)c1ccccc1C(F)(F)F (stereo not drawn)	-4.1%
O=C(COC(=O)c1ccc2ncsc2c1)NC(=O)C1CCCCC1	-1.6%
O=C(NC1CC1)c1ccc2nc([C@@H]3O[C@H](CO)[C@H](O)[C@H](O)[C@H]3O)[nH]c2c1	-2.8%
C[C@@H](c1ccccc1)N1C[C@H](COCc2ccccc2)Oc2cc(N3CCC[C@@H]3CO)ccc2S1(=O)=O	-19.2%
NCc1csc(Nc2nncc3ccccc23)n1	-5.9%
COc1cccc(C(C)(O)c2nc(-c3cc(F)cc(F)c3)cs2)c1 (stereo not drawn)	-0.4%
